Screens: PubChem, ICCB-Longwood Screening Facility, Harvard Medical School
HCMV UL50-53 inh: disrupts HCMV UL50-UL53 complex binding; HTRF UL50-UL53 interaction, normalized percent inhibition; inhibition, % (test concentration not listed); 0.15% of 190,000 active;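 active means both replicates at 50% or more, plus weaker picks with an unusually low signal ratio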;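 further: stock transfer was 100 nL into about 20 µL; 0% = negative control wells and 100% = wells with untagged competitor protein; inactives centre near -12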
Sa growth inh: blocks Staphylococcus aureus growth; S. aureus RN4220 growth, OD600, 20 h, 42 °C; hits give low values; relative growth, % (no concentration beside the values); 0.53% of 170,000 active;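 active means growth at 42 °C up to 50% and 20 or more points under that at 30 °C, or under 10% at both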;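 further: 300 nL library stock went into each well; scaled to the means of positive and negative controls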
GIV-Gai inh: GIV-Galpha-i interaction inhibition. P08753. Galpha-i3/FITC-GIV peptide fluorescence polarization, 90 min; hits give low values; scaled: aluminum fluoride 0%, vehicle 100%. percent of control (FP), % (concentration not given with the values). 0.42% of 210,000 active. AID 1224905;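 active means replicate mean at 85% of control or lower, very high polarization wells dropped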;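 further: wells of about 15 µL received 100 nL stock; the first replicate is given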
Target sequence (P08753 whole entry, looked up): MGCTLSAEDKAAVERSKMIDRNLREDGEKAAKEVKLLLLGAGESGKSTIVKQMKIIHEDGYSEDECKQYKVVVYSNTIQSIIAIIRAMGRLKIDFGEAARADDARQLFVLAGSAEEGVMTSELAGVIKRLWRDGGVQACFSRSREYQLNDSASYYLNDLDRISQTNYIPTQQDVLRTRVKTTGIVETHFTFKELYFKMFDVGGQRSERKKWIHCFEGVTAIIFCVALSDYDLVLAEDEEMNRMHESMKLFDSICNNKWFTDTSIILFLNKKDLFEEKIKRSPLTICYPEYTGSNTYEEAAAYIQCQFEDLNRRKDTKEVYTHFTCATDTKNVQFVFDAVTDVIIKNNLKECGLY
Sa growth inh second temp: second read-out of Sa growth inh, no call of its own (marks repeat the call); relative growth, %; measured here: growth at 30 °C;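 optical density after 20 h as mean of two plates; 100% = untreated growth and lower means inhibition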
The depositor's hits bear a star; / = not tested or not shown; & = joins results of further samples.

1	COc1ccc(/C=C/C(O)=C2/C(=O)NC34CCCCC3C2c2ccccc2O4)c(OC)c1OC (stereo unspecified)
2	CCCCOc1ccc(C(=O)Nc2onc3c2CCCC3)cc1
3	O=C(CSc1nc2ccccc2nc1Cc1ccc(Cl)cc1)N1CCCCC1
4	CC(C)(C)c1ccc(S(=O)(=O)N=S2CCN(c3ncc(C(F)(F)F)cc3Cl)CC2)cc1
5	COc1ccc(OC)c(NC(=O)c2cc3c(s2)-c2ccccc2SC3)c1
6	C=CCNC(=O)c1c(-c2ccccc2Cl)noc1C
7	O=C(Nc1ccc(S(=O)(=O)Nc2nccs2)cc1)c1sc2cc(Cl)ccc2c1Cl
8	COc1ccc(C)cc1Nc1nc2ccccc2c2nnc(C)n12
compound no.,1,2,3,4,5,6,7,8
HCMV UL50-53 inh,/,-19.0,/,-37.8,-20.7,-7.7,-4.7,0.2
Sa growth inh second temp,98.7,91.8,64.7,86.2,84.0,/,/,92.2
GIV-Gai inh,104.7,100.9,100.3&107.6,103.7,101.2,101.0,106.2,113.8
Sa growth inh,106.6,107.6,80.7,93.5,89.8,/,/,100.5

9	O=C(CSc1nnc2ccccn12)c1ccccc1
10	CC(=O)OC(C)(C)C#CCN1CCCC1
11	O=c1[nH]c(CSc2ncc(-c3ccc(F)cc3)n2Cc2ccco2)nc2ccccc12
12	CC1(C)Cc2c(sc3c2c(=O)n(-c2ccccc2)c2nnnn32)CO1
13	CC(C)(C)C(=O)NCC(c1cccs1)N1CCOCC1 (stereo unspecified)
14	CCCN1CCN(c2ncnc3sc(C(=O)Nc4cccc(Cl)c4C)c(C)c23)CC1
15	CC(C)CC(=O)Nc1nc2ccc(S(C)(=O)=O)cc2s1
16	N#CCc1ccc(OC(=O)c2cccnc2)cc1
compound no.,9,10,11,12,13,14,15,16
HCMV UL50-53 inh,-23.6,-16.0,-19.0,-36.3,-10.9,/,4.5,-3.8
Sa growth inh second temp,94.8,87.7,96.4,86.8,90.2,88.1,94.8,97.6
GIV-Gai inh,105.9,/,98.8,112.1,/,109.6,97.7,106.9
Sa growth inh,102.3,90.4,111.2,94.8,97.4,119.8,74.3,112.0

17	CC1CC(C)CN(C(=O)COC(=O)c2cccnc2Nc2ccccc2F)C1 (stereo unspecified)
18	Cc1cccc(-c2nc(CS(=O)CC(=O)NCc3ccc(Cl)cc3)c(C)o2)c1 (stereo unspecified)
19	O=C1Nc2ccc(Cl)cc2/C1=C/c1ccc2c(c1)OCO2
20	NCCN1CCc2ccccc21
21	O=C(c1ccco1)N1CCN(Cc2cccc(C(F)(F)F)c2)CC1
22	COC(=O)C1=C(C)NC2=C(C(=O)CCC2)C1c1ccc(N(C)C)cc1Cl (stereo unspecified)
23	Cc1ccc(C(=O)OCC(=O)c2c[nH]c3ccccc23)cc1
24	CNC(=O)NC(=O)CSc1nnc(Cc2ccccc2)n1-c1ccc(Cl)cc1
compound no.,17,18,19,20,21,22,23,24
HCMV UL50-53 inh,7.9,-31.3,-1.5,-18.5,-8.0,-11.5,-2.1,-13.4
Sa growth inh second temp,98.1,82.9,94.9,68.4,95.8,86.1,94.9,75.0
GIV-Gai inh,/,105.3,/,107.8,95.6,100.3,/,104.2
Sa growth inh,92.2,85.3,142.2,107.6,100.4,92.5,120.5,97.0

25	COc1ccc(CN2CC(C(=O)N3CCn4c(nc5ccccc54)C3)CC2=O)cc1 (stereo unspecified)
26	C/C=C(\C)CN1CCN(CCOCCO)CC1
27	Cn1cc(S(=O)(=O)N2CCCCCC2)cc1C(=O)N1CCN(c2ccc(Cl)cc2)CC1
28	COc1ccccc1CNC(=O)c1cc2cc(S(=O)(=O)N3CCCCC3)ccc2n1C
29	CC1CCN(C(=O)C2CCN(c3cc(-c4cccc(F)c4)ncn3)CC2)CC1
30	CCN(CC(=O)Nc1ccc2c(c1)OCCO2)c1nnnn1-c1ccccc1
31	CNc1ccccc1C(C)(C)c1ccn[nH]1
32	CC1(C)CC(=O)C(c2c[nH]c3ccccc23)C(=O)C1
compound no.,25,26,27,28,29,30,31,32
HCMV UL50-53 inh,/,-3.0,/,/,-40.6,-1.3,-15.2,-29.7
Sa growth inh second temp,82.8,108.7,94.8,86.7,/,96.0,93.2,56.1
GIV-Gai inh,103.9,109.9,100.4,100.5,101.1,/,/,/
Sa growth inh,100.0,104.5,92.2,93.3,/,94.4,91.6,104.4

33	CC(C)(C)NC1=C(C#N)C(=O)NC(c2ccccc2O)S1 (stereo unspecified)
34	O=C(OCc1nnc(-c2ccccc2)o1)c1ccc2c(=O)n3c(nc2c1)CCCCC3
35	Cc1cc(C)cc(C(=O)N2CC(=O)Nc3ccc(Br)cc3C2c2ccccc2)c1 (stereo unspecified)
36	CC1=C(C(=O)OCc2ccccc2)C(c2ccccc2)N(C)C(=O)N1C (stereo unspecified)
37	CCOc1ccc(S(=O)(=O)Nc2ncccc2C)cc1
38	Cc1cc(NC(=O)c2sc(Nc3ccccc3F)nc2N)no1
39	COC(=O)C(C)n1ncc2ccccc2c1=O (stereo unspecified)
40	COc1ccc(-c2nc3ccccc3n3c(-c4ccccc4)c4c(=O)n(C)c(=O)n(C)c4c23)cc1OC
compound no.,33,34,35,36,37,38,39,40
HCMV UL50-53 inh,-23.7,-17.2,/,-19.6,-16.1,4.3,-26.8,-26.8
Sa growth inh second temp,80.8,93.1,100.0,67.1,89.5,73.3,86.4,90.8
GIV-Gai inh,100.2,/,100.4,103.3,101.1,104.3,96.5,102.1
Sa growth inh,87.2,85.7,84.2,80.7,94.1,96.6,90.1,91.9

41	O=C(Cc1c(F)cccc1Cl)NC(=O)NCCc1c(F)cccc1Cl
42	C#CCN1C(=O)S/C(=C/c2cc(C)n(CC)c2C)C1=O
43	CCc1ccc(/C=C2/C(=O)N(C)C(=S)N2C)cc1
44	COC(=O)c1sccc1S(=O)(=O)N(CC(=O)Nc1ccccc1C)c1ccc(Cl)cc1
45	CC(=O)NCCOc1c(C)cc(S(N)(=O)=O)cc1C
46	O=S(=O)(c1ccccc1)c1ccc(NCCc2c[nH]c3ccccc23)nn1
47	Cc1ccc(CNc2ccc3c(c2)ncn3C)cc1
48	Cc1cc(Sc2ccc(Cl)cc2)nc(-c2ccccn2)n1
compound no.,41,42,43,44,45,46,47,48
HCMV UL50-53 inh,-6.4,-14.1,-37.6,/,-5.0,-26.6,3.0,20.6
Sa growth inh second temp,96.5,103.8,94.5,98.3,85.7,/,80.1,32.4
GIV-Gai inh,104.1,108.6,102.2,104.4,102.6,102.1,97.1,105.2
Sa growth inh,102.3,136.9,123.3,115.6,83.0,/,105.5,52.7

Compounds listed so far that contain a CF3 group (two):
4	CC(C)(C)c1ccc(S(=O)(=O)N=S2CCN(c3ncc(C(F)(F)F)cc3Cl)CC2)cc1
21	O=C(c1ccco1)N1CCN(Cc2cccc(C(F)(F)F)c2)CC1
compound no.,4,21
HCMV UL50-53 inh,-37.8,-8.0
Sa growth inh second temp,86.2,95.8
GIV-Gai inh,103.7,95.6
Sa growth inh,93.5,100.4

New compounds follow
49	CCOc1ccc(NC(=O)CSc2nc3[nH]ncc3c(=O)n2-c2ccc(OC)cc2)cc1
50	CC1CN(CC(O)COC2CCCc3ccccc32)CC(C)O1 (stereo unspecified)
51	CCc1ccc(NC(=O)Nc2cc(C)c3nc(NC(=O)c4ccccc4)sc3c2)cc1
52	CCOC(=O)CSc1nc(C)c2cc(C)c(C)cc2n1
53	Nc1sc2c(c1C(=O)c1ccccc1)CCCC2
54	C/C(N)=C(/C#N)C(=O)CSc1nc(C)nc2ccccc12
55	Nc1n[nH]c(CCCc2nc(N)n[nH]2)n1
56	CCOC(=O)c1ccc(N2C(=O)c3n[nH]c(-c4ccco4)c3C2c2cccc(O)c2)cc1 (stereo unspecified)
compound no.,49,50,51,52,53,54,55,56
HCMV UL50-53 inh,-25.6,-10.5,-14.7,/,-12.5,-14.7,10.3,-17.3
Sa growth inh second temp,79.8,101.1,/,87.2,86.0,86.8,102.2,71.4
GIV-Gai inh,104.4,/,99.1,103.9,/,/,96.1,108.6
Sa growth inh,97.2,101.1,/,79.9,103.4,102.3,105.7,105.0

57	CCN(C(=O)Cn1cc(S(=O)(=O)Cc2ccccc2Cl)c2ccccc21)c1ccccc1
58	COc1ccc(C(=O)Nn2c(C)nnc2-n2nc(C)cc2C)cc1OC
59	CC1=C/C(=C/c2ccco2)C(=O)O1
60	O=C(c1cccc(Cl)c1)N1CCC(c2nc3c(nnn3Cc3ccc(F)cc3F)c(=O)[nH]2)CC1
61	CCOC(=O)N1CCN(C(=O)CN(c2cc(Cl)ccc2OC)S(=O)(=O)c2ccc(OC)c(OC)c2)CC1
62	COC(=O)c1sccc1OCc1ccc(Cl)cc1
63	O=C(Nc1ccc2nccnc2c1)c1ccc2nsnc2c1
64	O=C(O)c1cc(N2CCCC2)ccc1NC(=O)C1CC1
compound no.,57,58,59,60,61,62,63,64
HCMV UL50-53 inh,/,/,/,5.3,12.9,-11.0,-53.2,-26.2
Sa growth inh second temp,102.0,89.4,73.9,1.5*,/,98.2,75.5,/
GIV-Gai inh,108.0,98.6,86.3,100.2,106.9,107.4,101.2,103.0
Sa growth inh,134.1,95.2,89.7,0.2*,/,97.3,105.2,/

Sorted by SMILES length (highest first): 14 of the compounds above
61	CCOC(=O)N1CCN(C(=O)CN(c2cc(Cl)ccc2OC)S(=O)(=O)c2ccc(OC)c(OC)c2)CC1
60	O=C(c1cccc(Cl)c1)N1CCC(c2nc3c(nnn3Cc3ccc(F)cc3F)c(=O)[nH]2)CC1
56	CCOC(=O)c1ccc(N2C(=O)c3n[nH]c(-c4ccco4)c3C2c2cccc(O)c2)cc1 (stereo unspecified)
49	CCOc1ccc(NC(=O)CSc2nc3[nH]ncc3c(=O)n2-c2ccc(OC)cc2)cc1
51	CCc1ccc(NC(=O)Nc2cc(C)c3nc(NC(=O)c4ccccc4)sc3c2)cc1
46	O=S(=O)(c1ccccc1)c1ccc(NCCc2c[nH]c3ccccc23)nn1
58	COc1ccc(C(=O)Nn2c(C)nnc2-n2nc(C)cc2C)cc1OC
54	C/C(N)=C(/C#N)C(=O)CSc1nc(C)nc2ccccc12
48	Cc1cc(Sc2ccc(Cl)cc2)nc(-c2ccccn2)n1
45	CC(=O)NCCOc1c(C)cc(S(N)(=O)=O)cc1C
compound no.,61,60,56,49,51,46,58,54,48,45
HCMV UL50-53 inh,12.9,5.3,-17.3,-25.6,-14.7,-26.6,/,-14.7,20.6,-5.0
Sa growth inh second temp,/,1.5*,71.4,79.8,/,/,89.4,86.8,32.4,85.7
GIV-Gai inh,106.9,100.2,108.6,104.4,99.1,102.1,98.6,/,105.2,102.6
Sa growth inh,/,0.2*,105.0,97.2,/,/,95.2,102.3,52.7,83.0

63	O=C(Nc1ccc2nccnc2c1)c1ccc2nsnc2c1
53	Nc1sc2c(c1C(=O)c1ccccc1)CCCC2
62	COC(=O)c1sccc1OCc1ccc(Cl)cc1
59	CC1=C/C(=C/c2ccco2)C(=O)O1
compound no.,63,53,62,59
HCMV UL50-53 inh,-53.2,-12.5,-11.0,/
Sa growth inh second temp,75.5,86.0,98.2,73.9
GIV-Gai inh,101.2,/,107.4,86.3
Sa growth inh,105.2,103.4,97.3,89.7

More results:
65	O=C(Nc1nccs1)C1C2/C=C\CCCCC21 (stereo unspecified)
66	Cc1cc(C(F)(F)F)n2ncc(-c3cccc(Cl)c3)c2n1
67	Cc1ccc(C)c(C(=O)N(CCN(C)C)c2nc3ccc(Cl)cc3s2)c1
68	C=CCSC1=N/C(=C\c2ccccc2)C(=O)N1c1ccc(OC)cc1
69	CC(=O)NC1(c2ccccc2)CCN(C(=O)c2cccs2)CC1
70	CS(=O)(=O)N(CC(=O)N1CCCCC1)C1CCCCC1
71	Cc1cc(C)cc(N(CC(=O)O)S(=O)(=O)c2c(C)[nH]c(=O)[nH]c2=O)c1
72	c1ccc(Cc2nnc3sc(-c4cc5ccccc5[nH]4)nn23)cc1
compound no.,65,66,67,68,69,70,71,72
HCMV UL50-53 inh,2.3,-23.4,-5.6,/,4.6,-7.9,-13.8,4.9
Sa growth inh second temp,106.4,/,/,88.3,97.2,92.0,85.7,/
GIV-Gai inh,101.1,97.2,108.8,101.7,98.4,104.6,100.5,118.1
Sa growth inh,115.9,/,/,100.9,83.7,124.8,95.9,/

73	CCOC(=O)C1=C(C)Nc2ncnn2C1
74	CCC(=O)c1ccc(OCC(O)CNC2CCCCCC2)cc1 (stereo unspecified)
75	O=C(c1ccc2c(c1)S(=O)(=O)N=C1CCCCCN12)N1CCCc2ccccc21
76	CC1=CC(C)C(C2OCC(C)(C)CO2)C(C)C1 (stereo unspecified)
77	COc1cccc(-c2csc(-c3nnn(-c4ccc(Cl)cc4)c3N)n2)c1
78	CCOc1ccc(NC(=O)NC(C)CC)cc1 (stereo unspecified)
compound no.,73,74,75,76,77,78
HCMV UL50-53 inh,-15.4,-4.8,-33.6,-12.5,-17.4,-11.9
Sa growth inh second temp,86.3,93.2,83.7,83.6,/,98.7
GIV-Gai inh,99.3,106.8,/,99.7,107.8,102.6
Sa growth inh,104.3,96.1,74.9,91.9,/,106.1
